BJeLR lethal = BJeLR cell viability loss; BJeLR (HRASV12) viability, CellTiter-Glo ATP luminescence, 48 h; reference of the scale not given here; inhibition, % (concentration not given with the values); hit rate 0.17% among 300,000; AID 1554;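 active = replicate mean above 50%; inconclusive = above 50% but judged a plate artefact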;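 also: 50 nL library stock added to about 25 µL; numbers are from one replicate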
Autofluor counter = compound fluorescence in toxin protease inhibitor counterscreen | fluorescence intensity (concentration not given with the values) | hit rate 3.1% among 360,000 | compound autofluorescence counterscreen, microsphere flow cytometry; hits give high values;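 active = at least 3 SD above the mean of all compounds, about 16000 in these data; inconclusive = too few beads counted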;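 also: 100 nL of 1 mM stock went into each well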
Sa ugtP lethal = kills S. aureus RN4220 lacking UgtP; hit rate 0.54% among 330,000; growth inhibition, % (test concentration not listed); S. aureus RN4220 ugtP deletion, OD600 growth, 16 h; some inactives read as strong as hits;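 active = z-score under -3 and OD600 up to 0.15 on both plates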;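 also: plate controls were untreated wells for no effect and antibiotic for full effect; wells of about 80 µL received 100 nL stock; the first replicate is given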
Sa RN4220 lethal = S. aureus RN4220 growth inhibition; OD600, 16 h; inhibition, % (concentration not given with the values); hit rate 0.33% among 330,000; AID 1259311;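 active = z-score of -3 or lower and OD600 up to 0.18 on both plates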;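 also: plate controls were untreated cells for no effect and reference antibiotic for full effect; stock transfer was 100 nL into about 80 µL; one replicate is shown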
PrP 5UTR inh = suppresses PrP 5' UTR mRNA reporter expression; cell-based PrP 5' UTR mRNA reporter, plate reader; hit rate 0.35% among 340,000; inhibition, % (no concentration beside the values);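 active = every replicate at 50% or more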;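 also: 0 = median of the neutral control wells; tested in H4 reporter cells; numbers are from one replicate; inactives centre near -14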
Mtb hypoxia rep = Mtb hypoxia fluorescent reporter inhibition; M. tuberculosis hypoxia-regulated fluorescent reporter, fluorescence; fluorescence inhibition, % (concentration not given with the values); hit rate 0.1% among 300,000; AID 1159583;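 active = 35 to 45% if threefold the growth effect, above 45% if 1.5-fold the growth effect; inactive = the rest, general growth blockers included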;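 also: wells of about 50 µL received 100 nL stock; 0% = vehicle wells and 100% = reference inhibitor wells; whole bacteria with a GFP reporter of the hypoxia response; strong numbers were not always called active; many hits fall short of the cut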
Mtb hypoxia rep growth = second read-out of Mtb hypoxia rep, no call of its own (marks repeat the call); growth inhibition, %; measured here: M. tuberculosis growth (absorbance);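 0% = vehicle and 100% = reference antibiotic; read after six days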
An asterisk follows results filed as active; ? = inconclusive; . = not tested or not shown; & = joins results of further samples. Rows are unselected; any-hit rate near 3.9%.

SMILES	BJeLR lethal	Autofluor counter	Sa ugtP lethal	Sa RN4220 lethal	PrP 5UTR inh	Mtb hypoxia rep	Mtb hypoxia rep growth
COc1ccccc1C(=O)N1CCN(c2ccccn2)CC1	3	5361	4	2.5	-20	10	7
CCOC(=O)c1ccc(NC(=O)c2ccc(CN3CCOCC3)cc2)cc1	12	4212	-1	1.3	-9	-8	-1
CN1CCN(c2ncc3c(n2)CC(c2ccccc2F)CC3=O)CC1 (configuration not stated)	-12	5062	12	6.0	-16	18	6
Cc1cccc(OP(=O)(Nc2c(C)n(C)n(-c3ccccc3)c2=O)Oc2cccc(C)c2)c1	-3	2202	15	-0.9	-23	10	10
CC(C)Cc1nnc(NC(=O)CCNC(=O)c2ccccc2Cl)s1	.	8847	10	6.5	-15	10	5
O=C(c1ccccc1F)N1CCN=C1c1ccccc1	-5	3829	5	-0.5	-18	7	6
O=C(C[n+]1ccccc1)Nc1ccccc1[N+](=O)[O-]	-12	.	3	3.4	-2	6	5
COCCCn1c(Cc2csc(Nc3ccc(F)cc3)n2)nnc1SCC(N)=O	-11	2727	8	1.7	-20	11	3
CSc1ccccc1NC(=O)CSc1cccc[n+]1[O-]	.	2840	15	9.4	-11	8	4
COc1ccc(S(=O)(=O)Nc2c(C)c(C)cc3c2ncn3C)cc1	0	2739	-4	3.8	-17	-8	0
Cc1occc1C(=O)NCc1nc(-c2ccccc2)no1	-19	3541	5	1.6	-6	13	6
CCC(C)NC(=O)CCc1c(C)nc2c(c(C)nn2-c2ccccc2)c1C (configuration not stated)	2	3124	-5	-3.1	-13	4	-1
COc1ccc(OC)c(N(CC(=O)NCc2ccccc2)S(=O)(=O)c2ccc(OC)c(OC)c2)c1	-4	6790	-5	2.3	8	-5	9
Nc1[nH]n(-c2ccccc2)c(=O)c1N=Nc1ccccc1[N+](=O)[O-]	-8	4117	2	4.9	-133	13	0
COc1ccc(C(=O)N2CCN(c3ncnc4c(-c5ccccc5)nsc34)CC2)cc1	3	4533	2	3.3	-23	-3	4

Complete entries, quoted from the list:
CCOC(=O)c1ccc(NC(=O)c2ccc(CN3CCOCC3)cc2)cc1 is listed as BJeLR lethal: 12; Autofluor counter: 4212; Sa ugtP lethal: -1; Sa RN4220 lethal: 1.3; PrP 5UTR inh: -9; Mtb hypoxia rep: -8; Mtb hypoxia rep growth: -1
CN1CCN(c2ncc3c(n2)CC(c2ccccc2F)CC3=O)CC1 (configuration not stated) is listed as BJeLR lethal: -12; Autofluor counter: 5062; Sa ugtP lethal: 12; Sa RN4220 lethal: 6.0; PrP 5UTR inh: -16; Mtb hypoxia rep: 18; Mtb hypoxia rep growth: 6

(listing goes on)
SMILES	BJeLR lethal	Autofluor counter	Sa ugtP lethal	Sa RN4220 lethal	PrP 5UTR inh	Mtb hypoxia rep	Mtb hypoxia rep growth
CNC(=O)CSCc1c(Cl)cccc1Cl	-2	6153	11	5.2	-2	12	9
O=C(Nc1ccc(F)cc1)c1ccccc1Oc1ccc(C(F)(F)F)cc1[N+](=O)[O-]	11	2360	-15	-1.2	-16	-7	-1
Brc1cc(Br)c(Oc2cc(Br)c(Br)cc2Br)cc1Br	.	5259	-5	-9.5	-22	8	10
COCCn1c(-c2ccc(OC)cc2)nc2ccccc21	1	3892	-6	7.3	-12	9	17
CCC(=O)N(CCC(Cc1ccccc1)c1ccc2c(c1)OCO2)Cc1ccccc1F (configuration not stated)	-3	3712	1	-4.8	-18	3	8
COc1cccc(/C=N/NC(=O)CCn2cnc3ccccc32)c1	2	4211	.	.	-14	.	.
CCOc1cc(C2C(C#N)=C(N)OC(C)=C2C(C)=O)cc(Br)c1O (configuration not stated)	0	7340	0	3.2	-24	6	-3
CCCCN(C(=O)C1CC(=O)N(c2ccc3c(c2)OCCO3)C1)c1c(N)n(CC(C)C)c(=O)[nH]c1=O (configuration not stated)	.	?	5	0.7	-8	5	7
O=C(Oc1cc(-c2ccccc2)no1)c1cccc(C(F)(F)F)c1	7	2769	0	3.0	-12	.	.
CCOc1ccc(S(=O)(=O)N/N=C(\C)C2CCCCC2)cc1	4	2525	.	.	-19	.	.
Cc1ccc(SCC(=O)Nc2nccs2)cc1	-9	3070	3	6.3	-34	14	11
COc1ccc(NS(=O)(=O)c2cccc(C(=O)NNC(=O)CNC(=O)c3ccccc3)c2)cc1	-3	7386	0	0.8	0	-4	10
Cc1ccccc1NS(=O)(=O)c1ccc(OCC(=O)NCc2ccco2)cc1	3	2317	2	3.9	-2	.	.
COc1cccc(CNC(=O)CCC(=O)N2CCSc3ccccc32)c1OC	7	4352	-8	-4.8	-16	-1	-6
Cc1cccc(N2C(=O)N3[C@@H]4c5ccccc5OC[C@@H]4[C@@H](c4ccccc4)[C@@]3(C)C2=O)c1	5	2906	7	21	-19	-1	-3
CCN1CCC(O)(C#Cc2ccccc2)CC1	0	3894	7	2.1	-13	0	3
C[C@@H](NC(=O)[C@@H]1Cc2ccccc2CN1)C(=O)Nc1ccc2c(c1)OCCO2	8	4279	-3	-5.3	-34	-1	-4
CCN1CCN(c2nc3c(c(=O)[nH]c(=O)n3C)n2Cc2ccccc2)CC1	2	3046	15	1.9	-15	1	-5
Cc1nc(SCc2ccccc2)n[nH]1	-13	.	13	4.8	-8	7	0
O=C(NN=Cc1cccs1)C(=O)N1CCCC1	.	.	0	4.6	.	3	-2
O=S(=O)(Nc1nccs1)c1ccc(F)cc1	-4	3418	11	5.2	-24	8	-1
CC(C)(C)N(Cc1ccccc1)C(=O)COC(=O)c1ccc(S(=O)(=O)N2CCOCC2)cc1	.	3873	1	2.1	-20	10	7
O=C(O)CSc1nnc(-c2ccco2)o1	-3	4270	3	2.3	5	.	.
O=C(COc1ccccc1N1C(=O)C2C3C=CC(C3)C2C1=O)c1ccccc1 (configuration not stated)	-7	5504	1	3.3	-34	-9	4
O=C(Nc1cccnc1)OCc1ccccc1	1	3910	-4	-3.9	-47	-3	-9
COc1cc(/C=C/C(=O)N(C)CC(=O)Nc2ccccc2Br)cc2c1OCCO2	.	.	3	1.2	.	6	0
CCNc1cc2oc(=O)c(CN3CCOCC3)c(C)c2cc1C	.	3278	-1	4.0	-6	6	8
CCCN(C(=O)CSc1nc2cc(S(=O)(=O)N(CC)CC)ccc2o1)C1CCS(=O)(=O)C1 (configuration not stated)	-4	.	15	4.0	-13	7	0
O=C(CN1CCCC1)Nc1ccc(-c2nc3cc(NC(=O)CN4CCCC4)ccc3o2)cc1	16	4370	0	3.2	-51	3	7
Cc1cc(N2C(=O)C(O)=C(C(=O)c3ccc(C)o3)C2c2cccs2)no1 (configuration not stated)	-16	2531	-2	-14	-36	3	11
COc1ccc(N2C(=O)C(CN3CCN(C)CC3)C2c2ccccc2)cc1 (configuration not stated)	-7	4347	12	0.8	-15	5	15
COc1cc(/C=N/n2cnnc2)ccc1OC(=O)c1ccco1	-11	2139	.	.	-72	.	.
Cc1nc(C#N)c(N/N=C/c2cccc(Cl)c2)o1	11	5390	.	.	-72	.	.
COP(=O)(/C=C/c1ccccc1)C(O)c1ccc(F)cc1 (configuration not stated)	-3	2380	.	.	-14	.	.
Cc1cc(C)c(C)c(S(=O)(=O)N[C@@H](C)C(=O)OC(C)C(=O)NC(N)=O)c1C (some centres not stated)	9	4108	-1	5.1	-13	-1	2
CSc1ccccc1NC(=O)CN(C)CC(=O)Nc1cc(C)ccc1C	-17	2237	-3	6.1	-10	-8	-1
O=C(COc1ccc(/C=N/NC(=O)C(=O)N2CCCCCC2)cc1)Nc1ccccc1Cl	7	10374	.	.	-7	.	.
Cc1ccc(CN(C(=O)c2csnn2)C(C(=O)NC2CCCC2)c2ccco2)cc1 (configuration not stated)	2	3847	6	3.5	-10	-2	2
CCc1cc[n+](CC(=O)Nc2ccc(Cl)cc2Cl)cc1	-1	4068	3	1.1	-15	8	3
CCN1/C(=C2\C(=O)N(C)C(=S)N2C)C=Cc2cc(C)ccc21	19	10038	-4	2.6	-8	.	.
COc1ccc(-c2c(C(F)(F)F)nn(C)c2NC(=O)CSCC(=O)O)cc1	-3	4054	17	5.7	.	15	3
CC(OC(=O)c1cccc(Cl)c1)C(=O)NC1CCCCC1C (configuration not stated)	5	5701	3	3.0	3	-6	2
O=c1c2ccccc2nc(-c2ccccc2)n1N=Cc1ccc([N+](=O)[O-])cc1	.	.	-4	1.8	.	4	1
O=C(O)COc1ccccc1/C=N/NC(=O)c1cc(-c2ccc(Cl)cc2)nc2ccccc12	-5	6336	.	.	-14	.	.
O=S(=O)(c1ccc(Cl)s1)N1CCC(Cc2ccccc2)CC1	3	23306*	25	0.9	17	3	10
Cn1c(SCCOc2ccccc2F)nc2ccccc2c1=O	-4	4309	5	-1.7	-24	2	-3
Cc1ccc(NS(=O)(=O)c2c(C)[nH]c(C)c2C(=O)N2CCCCC2)c(Br)c1	4	5195	2	2.3	-21	13	13
CCOC(=O)C1=C(C)c2ccccc2N(C(=O)OC)C1(C)C(=O)OCC (configuration not stated)	.	3384	8	6.4	-21	12	15
O=C(c1ccc(N2CCN(C(=O)c3ccccc3Br)CC2)cc1)c1cccc(F)c1	5	5759	7	-0.4	9	4	4
O=C(CNS(=O)(=O)c1ccc(F)cc1)N1CCOCC1	7	3908	6	5.0	3	-7	5
COc1ccc(NC(=O)CCC(=O)N2CCOCC2)c([N+](=O)[O-])c1	-3	6394	-2	4.8	-25	8	-9
CCOc1ccc(OCC)c(NC(=O)CN2CCN(CC)CC2)c1	-5	2637	4	3.1	-5	.	.
Cc1cccc(N2CCN(C(=O)CNC(=O)c3ccccc3)CC2)c1C	2	3821	13	-0.7	-48	18	3
CCN1CCN(C(=O)c2cn(CC)c3ccc(S(=O)(=O)N(C)C)cc3c2=O)CC1	7	6044	1	3.8	-32	.	.
O=C(c1ccc2c(c1)OCO2)N1CCC2(CC1)Oc1ccc(F)cc1C(=O)C21CC(c2ccccc2)=NO1 (configuration not stated)	2	4166	0	2.6	-27	-13	2
CCOC(=O)C(/C(N)=N/C(=O)Nc1ccccc1)=C(\C)O	4	8187	11	2.0	-12	16	1
CCOc1ccccc1OCCn1nnc2ccccc21	5	4437	-8	5.8	-17	17	12
Cc1c(Cl)cccc1NC(=O)CSc1nnnn1C	.	5426	3	6.8	7	0	0
COc1ccc(CCNC(=O)C2CC(c3ccccc3C(F)(F)F)=NO2)cc1 (configuration not stated)	-4	3055	5	4.3	-19	12	6
CCOc1ccc(NC(=O)CN(C)C(=O)CCC2CCCCC2)cc1OCC	.	3870	7	-3.7	-24	-3	-2
(further entries)
SMILES	BJeLR lethal	Autofluor counter	Sa ugtP lethal	Sa RN4220 lethal	PrP 5UTR inh	Mtb hypoxia rep	Mtb hypoxia rep growth
COc1cccc(/C=C/C(=O)c2ccc[nH]2)c1	-2	3860	-5	7.8	-58	7	6
C/C(CC(=O)Nc1cccc2c1CCCC2)=N\NC(=O)COc1ccccc1	2	2065	.	.	-35	.	.
CC(C)(C)NC(=O)CCN(N=Cc1ccccc1)C1=NS(=O)(=O)c2ccccc21	.	.	3	2.0	.	-3	3
CCCOc1ccc(CSCCNC(=S)Nc2ccccc2)cc1	-4	2316	12	3.7	-16	7	9
C=CCCC(Cc1ccc(F)cc1)C(=O)OCC(Cc1c[nH]c2ccccc12)NC(=O)C(CC=C)CC(=O)N(CCO)Cc1ccccc1 (configuration not stated)	.	.	7&-2&-26&-20&-32	-5.2&-13&-4.9&-3.4&-4.4	.	-4&4&5&5&-9	-3&12&9&7&5
Cc1ccc(-c2[nH]nc(N)c2N=Nc2cccc(Cl)c2C)cc1	.	4762	99*	84	-29	-6	-5
COc1cccc(C2=NN(C(C)=O)C(c3cccs3)C2)c1 (configuration not stated)	-3	3521	4	7.1	-24	8	4
CCC(/C=N/NC(=O)CCCCC(=O)N/N=C/C(CC)CC)CC	2	1990	.	.	-45	.	.
COc1ccc(C(=O)COC(=O)c2ccc([N+](=O)[O-])s2)cc1OC	.	4196	5	4.9	-9	12	0
Cc1ccc(OCc2cc(C(=O)N(C)Cc3cnn(-c4ccccc4C)c3)no2)cn1	12	6208	4	-3.8	-19	-4	-2
Cc1ccc(S(=O)(=O)NCC(=O)NCC(=O)OCc2c(F)cccc2Cl)cc1	-2	3594	-1	0.7	-20	3	14
C/C=C\C=C\C(=O)N1CC2(CC(c3cccc(NC(=O)CC(c4ccccc4)c4ccccc4)c3)=NO2)C[C@H]1C(N)=O (some centres not stated)	-7	3441	.	.	-28	.	.
O=C(Nc1ccc2c(c1)OCCO2)c1cc(-c2ccccn2)nc2ccc(Br)cc12	.	4231	5	-7.6	-1	2	-3

From PubChem BioAssay
